Marburg entry inh: qHTS for inhibitors of binding or entry into cells for Marburg Virus; Marburg virus pseudotyped entry inhibition, cell reporter; control for the full effect not named in the record; about a third of the inactives were read at about 46 µM; Potency, µM (titrated, usually from 37.8 µM), without a hit: at the top dose activity change, negative = inhibition, actives largely listed as inhibitors; 300,000 tested, 1.8% active; AID 540276, 2011; active = well fitted inhibition curve with a large enough effect; inconclusive = small, poorly fitted or top-dose-only effect, or effect the other way; inactive = flat fitted curve, though single readings scatter; tested in HEK293 cells; about a fifth of its hits are not listed in these tables; further: on the % scale 0 is the no-effect control and ±100 the full control effect; luciferase read-out
SARS PLP yeast: qHTS of Yeast-based Assay for SARS-CoV PLP; S. cerevisiae expressing SARS-CoV PLpro, growth rescue; control for the full effect not named in the record; Potency, µM (top dose mostly 32.9 µM), without a hit: at the top dose activity, positive = growth rescue; 330,000 tested, 0.19% active; AID 485353, 2010; further: 0% is about no effect; nearly all actives have a fitted effect of over 55% in size; growth read by luminescence after 48 h
RE007 growth inh: qHTS Assay for Inhibitors of the HIV-1 protein Vpr | 360,000 tested, 0.21% active | S. pombe RE007 Vpr strain, BacTiter-Glo ATP luminescence, 24 h; control for the full effect not named in the record | Potency, µM (doses to about 92.2 µM), for the others: at the highest dose activity change, negative = less growth | AID 651644, 2012; active = well fitted falling curve with a large enough effect; inconclusive = small, poorly fitted or top-dose-only effect; inactive = no such curve, though single readings can be large or run the other way;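 further: on the % scale 0 is the no-effect control and ±100 the full control effect; nearly all actives have a fitted effect of over 50% in size; the assay follows cell death caused by Vpr and the record does not say whether a fall means rescue or toxicity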
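Fission yeast strain RE007, carrying one chromosomally integrated HIV-1 vpr copy, was seeded at OD 0.01 in PMG+AL medium with 23 nL pinned compound. After 24 h at 30 °C and 99% humidity, viability was read by BacTiter-Glo luminescence.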
2A StopGo: High Throughput Screening for Foot and Mouth Disease Virus Antivirals; AID 1159524, 2015; 410,000 tested, 1.2% active; Potency, µM (doses to about 57.9 µM), without a hit: at the top dose signal change, negative = less light; human cells with a luciferase reporter of 2A StopGo recoding; control for the full effect not named in the record; active = well fitted falling curve with a large enough effect; inconclusive = small, poorly fitted or top-dose-only effect; inactive = no such curve, though single readings can be large or run the other way; tested in HEK293T cells; further: on the % scale 0 is the no-effect control and ±100 the full control effect; nearly all actives have a fitted effect of over 45% in size; luciferase light after 4 h
NS1 inh: qHTS Assay for Inhibitors of Influenza NS1 Protein Function | Potency, µM (doses to about 46.1 µM), for the others: at the top dose activity, positive = more growth | AID 2326, 2010 | S. cerevisiae slowed by influenza A NS1, growth recovery by OD600 | 270,000 tested, 0.4% active; further: actives are rising curves; nearly all actives have a fitted effect of over 50% in size
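Growth recovery, yeast-based: influenza A NS1 expressed in S. cerevisiae causes slow growth, and suppressors are detected by OD600. The parent strain without NS1 is used as positive control.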
Cruzain Triton: qHTS Assay for Promiscuous and Specific Inhibitors of Cruzain (with detergent) | AID 1478, 2009 | 200,000 tested, 0.43% active | purified cruzain, Z-FR-AMC fluorescence, 0.01% Triton | Cruzipain (Trypanosoma cruzi), P25779 | Potency, µM, inactives show max response, negative = inhibition, most hits filed as inhibitors; active means well fitted curve in the direction sought with a large enough effect; inconclusive means small, poorly fitted or top-dose-only effect, or another doubt; inactive means no such curve, though single readings can be large; an effect the other way counts as inactive or inconclusive;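 further: plate controls were neutral wells for no effect and buffer without enzyme for full effect; nearly all actives have a fitted effect of over 40% in size; top concentration of the series not given in the record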
Target sequence (P25779 123-467 limits assumed): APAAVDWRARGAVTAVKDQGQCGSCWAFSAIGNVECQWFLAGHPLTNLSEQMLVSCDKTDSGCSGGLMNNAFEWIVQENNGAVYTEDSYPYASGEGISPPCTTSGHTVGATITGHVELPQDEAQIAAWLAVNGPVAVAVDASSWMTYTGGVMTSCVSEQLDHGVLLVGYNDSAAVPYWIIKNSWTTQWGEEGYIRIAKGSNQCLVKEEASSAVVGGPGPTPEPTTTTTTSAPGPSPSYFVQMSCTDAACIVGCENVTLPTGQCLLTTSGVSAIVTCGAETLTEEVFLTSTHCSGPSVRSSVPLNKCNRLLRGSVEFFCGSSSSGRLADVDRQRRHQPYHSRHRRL
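15 min RT preincubation of 1.5 nM cruzain with compound, then 2 uM Z-FR-AMC added; kinetic AMC fluorescence, 60 s delta. Triton X-100 0.01%, pH 5.5.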
LASV entry inh: qHTS for Inhibitors of binding or entry into cells for Lassa Virus; Potency, µM (series often up to 37.9 µM), for inactives: top-dose activity change, negative = inhibition, most hits filed as inhibitors; AID 540256, 2011; 300,000 tested, 1.2% active; Lassa virus pseudotype entry inhibition, cell reporter; control for the full effect not named in the record; active means well fitted inhibition curve with a large enough effect; inconclusive means small, poorly fitted or top-dose-only effect, or effect the other way; inactive means flat fitted curve, though single readings scatter; tested in HEK293 cells; further: on the % scale 0 is the no-effect control and ±100 the full control effect; nearly all actives have a fitted effect of over 50% in size; luciferase read-out
Cruzain inh noDet: qHTS Assay for Promiscuous and Specific Inhibitors of Cruzain (without detergent) | Cruzipain (Trypanosoma cruzi), P25779 | purified cruzain, Z-FR-AMC fluorescence, no detergent | Potency, µM, inactives show max response, negative = inhibition, actives largely listed as inhibitors | 200,000 tested, 2.3% active; active means well fitted curve in the direction sought with a large enough effect; inconclusive means small, poorly fitted or top-dose-only effect, or another doubt; inactive means no such curve, though single readings can be large; an effect the other way counts as inactive or inconclusive;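 further: plate controls were enzyme without inhibitor for no effect and buffer without enzyme for full effect; nearly all actives have a fitted effect of over 40% in size; top concentration of the series not given in the record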
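Detergent-free condition (0.00005% Triton X-100) in acetate buffer pH 5.5 with DTT. 1.5 nM enzyme and compound were pre-mixed 15 min, then 2 uM Z-FR-AMC substrate added; reaction progress from fluorescence change between first and third reads (60 s).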
Active calls of the source: *; [ ] = dose if it differs, or a comment. Unless noted, the call rests on the fitted dose curve; in most records, active means well fitted rising curve with a large enough effect; inconclusive means small, poorly fitted or top-dose-only effect; inactive means no such curve, though single readings can be large or run the other way. Potency means the concentration at half of the fitted maximal effect. This is a random part of the collection, and some 4.5% of all compounds hit somewhere here.

What do the screens show for `COc1ccc(S(N)(=O)=O)cc1C(=O)OCCCOc1ccc(F)cc1`?
Marburg entry inh: inconclusive; SARS PLP yeast: -2%; RE007 growth inh: -14%; 2A StopGo: -10%; NS1 inh: 6%; LASV entry inh: 0%

What do the screens show for `Cc1ccc(-c2nc(C)c(CCNC(=O)c3cccs3)s2)cc1`?
2A StopGo: 22%; Cruzain Triton: -7.6%; LASV entry inh: -2%[46.1 µM]; Cruzain inh noDet: 15%

What do the screens show for `CCOc1cc(S(=O)(=O)NCc2ccc(OC)cc2)c(OCC)cc1-n1cnnn1`?
Marburg entry inh: inconclusive; SARS PLP yeast: -13%; RE007 growth inh: 11%; 2A StopGo: 28%; NS1 inh: -2%; Cruzain Triton: 1.7%; LASV entry inh: -29%; Cruzain inh noDet: -6%

How did Cc1cnc(C(=O)Nc2ccccc2-n2cccc2)cn1 do in these assays?
Marburg entry inh: 9%; SARS PLP yeast: -5%; RE007 growth inh: -25%; 2A StopGo: 5%; NS1 inh: -5%; Cruzain Triton: 6.7%; LASV entry inh: -29%; Cruzain inh noDet: 2%

Results for O=C(NCc1ccccc1F)C(=O)NCC(c1ccco1)S(=O)(=O)c1ccccc1 (stereo not given) ?
2A StopGo: -18%; Cruzain Triton: -3.2%; LASV entry inh: -19%[46.1 µM]; Cruzain inh noDet: -7%

What do the screens show for `Cc1occc1-c1nnc(SCC(=O)c2ccc3c(c2)OCCO3)n1CC1CCCO1` (stereo not given)?
SARS PLP yeast: 0%; RE007 growth inh: 7%; 2A StopGo: -19%; NS1 inh: 2%

What do the screens show for `CC(=O)c1ccc(NC(=O)CN2CCN(CC(=O)Nc3ccc(C(C)=O)cc3)CC2)cc1`?
Marburg entry inh: inconclusive; SARS PLP yeast: 0%; RE007 growth inh: 0%; 2A StopGo: 2%; NS1 inh: -1%; LASV entry inh: 24%[46.1 µM]

How did COc1ccc(-c2nc3ccccc3c(=O)n2CCOc2cc(C)ccc2C)cc1 do in these assays?
Marburg entry inh: 0%; SARS PLP yeast: 14%; RE007 growth inh: -5%; 2A StopGo: -4%; NS1 inh: 2%; Cruzain Triton: -3.9%; LASV entry inh: 8%; Cruzain inh noDet: -17%

What do the screens show for `CCCCNC(=O)COC(=O)CCC(=O)c1cccs1`?
Marburg entry inh: 9%[46.1 µM]; SARS PLP yeast: 26%; RE007 growth inh: -14%; 2A StopGo: 5%; NS1 inh: 0%; Cruzain Triton: 1.9%; LASV entry inh: 0%; Cruzain inh noDet: 5%

What do the screens show for `Cc1sc2nc(CSCC(=O)Nc3c(F)cccc3F)[nH]c(=O)c2c1C`?
Marburg entry inh: 11%; SARS PLP yeast: -4%; RE007 growth inh: -5%; 2A StopGo: -11%; LASV entry inh: inconclusive

How did CCOC(=O)Cn1c(=O)oc2cc(S(=O)(=O)N3CCN(C(=O)OCC)CC3)ccc21 do in these assays?
SARS PLP yeast: 10%; RE007 growth inh: 0%; 2A StopGo: -1%; NS1 inh: -2%

Results for Cc1ccccc1-n1nnnc1SCc1csc(-c2ccccc2)n1 ?
Marburg entry inh: inconclusive; SARS PLP yeast: -2%; RE007 growth inh: 14%; 2A StopGo: -29%; NS1 inh: -5%; Cruzain Triton: -1.8%; LASV entry inh: 13µM*; Cruzain inh noDet: 9%

What do the screens show for `Cc1ccc(C)c(NC(=O)C[n+]2ccccc2)c1`?
Marburg entry inh: -1%; SARS PLP yeast: 7%; RE007 growth inh: 9%; 2A StopGo: -14%; NS1 inh: 11%; LASV entry inh: inconclusive

What do the screens show for `COc1ccccc1OCCNc1nc2c(c(=O)n(C)c(=O)n2C)n1C`?
Marburg entry inh: -10%; SARS PLP yeast: -18%; RE007 growth inh: 2%; 2A StopGo: -6%; NS1 inh: 3%; Cruzain Triton: -1.8%; LASV entry inh: -15%; Cruzain inh noDet: 16%

How did O=C(Cn1cc(C=C2C(=O)NC(=O)NC2=O)c2ccccc21)NCC1CCCO1 (stereo not given) do in these assays?
Marburg entry inh: -2%[46.1 µM]; SARS PLP yeast: 17%; RE007 growth inh: 13%; 2A StopGo: -17%; NS1 inh: 19%; LASV entry inh: -20%

How did NC(=O)C1C(=O)c2ccccc2C1(C[N+](=O)[O-])c1ccccc1 (stereo not given) do in these assays?
Marburg entry inh: -1%[46.1 µM]; RE007 growth inh: -13%; 2A StopGo: -2%; LASV entry inh: -24%[46.1 µM]

How did CCc1cccc(CC)c1NC(=O)C(CC)Sc1nc2ccncc2[nH]1 (stereo not given) do in these assays?
SARS PLP yeast: 18%; RE007 growth inh: -6%; 2A StopGo: -4%; NS1 inh: 3%

What do the screens show for `Cc1c(Cl)cccc1NC(=O)CCN1CCOCC1`?
SARS PLP yeast: 2%; RE007 growth inh: 9%; 2A StopGo: -2%; NS1 inh: 18%

What do the screens show for `O=C(Oc1ccccc1N1C(=O)C2CCCCC2C1=O)c1ccc(Cl)cc1` (stereo not given)?
Marburg entry inh: -20%; SARS PLP yeast: 4%; RE007 growth inh: -1%; 2A StopGo: 7%; NS1 inh: 5%; Cruzain Triton: -3.3%; LASV entry inh: 22%; Cruzain inh noDet: 12%

What do the screens show for `NCC(c1ccco1)c1c[nH]c2ccccc12` (stereo not given)?
SARS PLP yeast: -4%; RE007 growth inh: 2%; 2A StopGo: -3%; NS1 inh: 29%

How did COc1cc(C(C)=O)ccc1OCC(=O)NCC(c1ccc(F)cc1)N1CCOCC1 (stereo not given) do in these assays?
Marburg entry inh: -16%[46.1 µM]; SARS PLP yeast: 2%; RE007 growth inh: 3%; 2A StopGo: -6%; LASV entry inh: 0%[46.1 µM]

Results for COc1ccc(NS(=O)(=O)c2ccc(NC(=S)NC(=O)c3cccnc3)cc2)nn1 ?
Marburg entry inh: inconclusive; SARS PLP yeast: -3%; RE007 growth inh: -27%; 2A StopGo: 89%[activator]; NS1 inh: -2%; LASV entry inh: -14%

What do the screens show for `Cc1cc(C)c(-c2csc(NC(=O)C3=COCCO3)n2)c(C)c1`?
Marburg entry inh: inconclusive; SARS PLP yeast: -27%; RE007 growth inh: inconclusive; 2A StopGo: inconclusive; LASV entry inh: -13%

How did CS(=O)(=O)c1ccc2nc(NC(=O)c3ccc(NS(=O)(=O)c4ccc(F)c(F)c4)cc3)sc2c1 do in these assays?
SARS PLP yeast: 2%; RE007 growth inh: -2%; 2A StopGo: -1%; NS1 inh: 3%

What do the screens show for `Nc1nonc1-n1nnc(C(=O)N/N=C/c2cccnc2)c1CSc1ccccc1`?
Marburg entry inh: 16%[46.1 µM]; SARS PLP yeast: 6%; RE007 growth inh: 0%; 2A StopGo: 17%; NS1 inh: -6%; LASV entry inh: 17%[46.1 µM]

How did Cc1oc(-c2ccccc2Cl)nc1CN(Cc1ccccn1)C[C@@H]1CCC(=O)N1 do in these assays?
SARS PLP yeast: 0%; RE007 growth inh: -4%; 2A StopGo: -17%; NS1 inh: -1%

Results for Cc1nn(C)c2c1c(-c1ccccc1)cc(=O)n2C(C)C(=O)NCc1ccc(F)cc1 (stereo not given) ?
2A StopGo: -16%; Cruzain Triton: -7.5%; LASV entry inh: inconclusive; Cruzain inh noDet: 57%

How did O=C(CSc1nc2ccsc2c(=O)n1Cc1ccccc1F)NCc1ccccc1Cl do in these assays?
2A StopGo: -13%; Cruzain Triton: 0.7%; LASV entry inh: -2%[46.1 µM]; Cruzain inh noDet: 9%

How did CC(C)(C)c1cc(CCC(=O)NCc2cccnc2)cc(C(C)(C)C)c1O do in these assays?
Marburg entry inh: -8%[46.1 µM]; SARS PLP yeast: 1%; RE007 growth inh: -6%; 2A StopGo: 14%; NS1 inh: 22%; LASV entry inh: 3%[46.1 µM]

What do the screens show for `CCOC(=O)c1c(CN2CCOCC2)oc2ccc(OC(C)=O)cc12`?
Marburg entry inh: -27%; SARS PLP yeast: 3%; RE007 growth inh: -5%; 2A StopGo: 4%; NS1 inh: -11%; LASV entry inh: inconclusive

Results for OCCCNc1ncnc2c1cnn2-c1ccc(Cl)cc1 ?
SARS PLP yeast: -3%; RE007 growth inh: 6%; 2A StopGo: -36%; NS1 inh: 3%

How did Cc1cccc(Cn2c(N3CCCCC3C)nc3c2c(=O)[nH]c(=O)n3C)c1 (stereo not given) do in these assays?
SARS PLP yeast: 18%; RE007 growth inh: 1%; 2A StopGo: inconclusive; NS1 inh: -32%; Cruzain Triton: -7.7%; Cruzain inh noDet: 6%

Results for Cc1cnc(C(=O)OCc2csc(CC(=O)Nc3ccccc3C)n2)cn1 ?
Marburg entry inh: 20%; SARS PLP yeast: 0%; RE007 growth inh: -2%; 2A StopGo: -15%; NS1 inh: 13%; LASV entry inh: 1%

What do the screens show for `CC(=O)N1CCN(CC(=O)Nc2ccc(Cl)c(S(=O)(=O)N(C)C)c2)CC1`?
Marburg entry inh: inconclusive; SARS PLP yeast: 1%; RE007 growth inh: 15%; 2A StopGo: -13%; NS1 inh: -7%; Cruzain Triton: -0.3%; LASV entry inh: -6%; Cruzain inh noDet: -7%

What do the screens show for `COc1ccccc1N1CCN(C(=O)c2ccc([N+](=O)[O-])s2)CC1`?
Marburg entry inh: -3%; SARS PLP yeast: -24%; RE007 growth inh: inconclusive; 2A StopGo: inconclusive; NS1 inh: 24%; Cruzain Triton: -4.5%; LASV entry inh: -4%; Cruzain inh noDet: 3%

What do the screens show for `CC1CCCN(C(=O)c2sc3cc([N+](=O)[O-])ccc3c2Cl)C1` (stereo not given)?
Marburg entry inh: -17%; SARS PLP yeast: 0%; RE007 growth inh: 17%; 2A StopGo: 0%; NS1 inh: -10%; Cruzain Triton: -1.4%; LASV entry inh: -19%; Cruzain inh noDet: -1%
